Screening data deposited in PubChem by several laboratories.
RGS16-Gao HTS – RGS16-Galphao interaction regulator (human); O15492+P09471; bead-based flow cytometry RGS16-Galphao binding, fluorescence; actives lie on both sides; binding response (% of control), % at 10 µM; hit rate 0.38% among 220,000; AID 1441;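 active = below 25% or above 175%, edge rows of some plates excepted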;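 also: Galphao activated by GDP with aluminum fluoride before binding; 100% = wells without compound and 0% = beads without RGS; some results beyond the cut were filed as inactive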
Target sequence (O15492 whole entry, looked up): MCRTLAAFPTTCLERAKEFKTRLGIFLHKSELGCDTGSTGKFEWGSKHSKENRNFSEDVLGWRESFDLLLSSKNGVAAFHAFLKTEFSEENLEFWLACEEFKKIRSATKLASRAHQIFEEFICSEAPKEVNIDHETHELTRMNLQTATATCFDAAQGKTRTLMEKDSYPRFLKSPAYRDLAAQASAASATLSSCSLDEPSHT
Target sequence (P09471 whole entry, looked up): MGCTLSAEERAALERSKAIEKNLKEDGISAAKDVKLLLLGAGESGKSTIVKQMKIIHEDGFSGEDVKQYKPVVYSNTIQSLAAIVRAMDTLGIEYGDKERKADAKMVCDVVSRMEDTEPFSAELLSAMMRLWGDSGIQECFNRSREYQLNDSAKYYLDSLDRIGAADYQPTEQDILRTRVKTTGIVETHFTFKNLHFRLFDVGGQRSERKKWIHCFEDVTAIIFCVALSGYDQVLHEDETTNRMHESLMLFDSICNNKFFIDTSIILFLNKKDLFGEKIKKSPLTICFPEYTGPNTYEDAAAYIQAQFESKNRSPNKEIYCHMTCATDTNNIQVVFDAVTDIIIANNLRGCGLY
GALR2 ag – activates the human galanin receptor 2. GALR2-expressing cells, agonist activation read-out. activation, %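 (tested at 5 µM)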. hit rate 0.48% among 140,000. AID 803;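 active = above mean plus 3 SD of all compounds, about 5% in these data, not always enough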;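 also: 0% = vehicle buffer wells and 100% = reference agonist at full effect; tested in CHO reporter cells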
Target sequence (O43603 whole entry, looked up): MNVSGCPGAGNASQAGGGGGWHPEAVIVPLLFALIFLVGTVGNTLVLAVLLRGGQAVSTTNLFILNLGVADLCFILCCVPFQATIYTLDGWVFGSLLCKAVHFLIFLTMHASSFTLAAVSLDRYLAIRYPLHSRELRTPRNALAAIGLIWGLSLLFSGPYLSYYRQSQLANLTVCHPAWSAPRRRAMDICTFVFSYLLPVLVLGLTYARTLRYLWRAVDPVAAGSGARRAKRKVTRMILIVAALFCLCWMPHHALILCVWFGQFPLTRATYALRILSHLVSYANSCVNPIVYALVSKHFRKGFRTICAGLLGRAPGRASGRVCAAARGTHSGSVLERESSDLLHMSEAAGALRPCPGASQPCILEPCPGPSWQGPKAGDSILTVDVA
PKD1 kinase inh – inhibitors of human PKD1 kinase; Q15139; PKD1 kinase fluorescence polarization assay; inhibition, %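 (about 10 µM by stock and volumes)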; hit rate 0.056% among 200,000;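 active = inhibition of 50% or more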;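 also: controls were vehicle for no effect and a reference inhibitor for full effect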
HSV augment – HSV replication enhancement; HSV replication augmentation in cells, fold increase; maximum fold increase; hit rate 0.005% among 220,000;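 active = peak rise of 1.5-fold or more in the series; tested in PC3 cells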;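 also: first round at 10 µM; read as green reporter fluorescence; hits show the peak of a series up to 25 µM; 1 = signal of infected wells without compound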
Insulin prom inh – TRM-6 insulin promoter activity inhibition; TRM-6 cells (human fetal islet line), insulin promoter-eGFP reporter, imaging; reporter expression induced with tamoxifen; inhibition, % at 2 µM; hit rate 0.9% among 130,000;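 active = inhibition above the mean plus 3 SD, with well images judged a real hit on visual review, cut at about 60% in these data, passing the limit was not always enough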
Insulin prom inh cell count – recorded beside Insulin prom inh, whose call it bears; normalized cell count, %; measured here: cell count, toxicity; reference of the scale not given here;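 cells exposed to compound for 48 h; stained nuclei by imaging scaled within each plate; lower means fewer cells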
HSV augment primary fold – also measured in HSV augment; calls as there; fold increase; compound at 10 µM; measured here: primary screen fold increase 10 uM; tested in PC3 cells;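 GFP signal in the first replicate; 1 = infected wells without compound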
* marks the source's active call; other numbers are inactive results; i = inactive; . = not tested or not shown.

#	compound	RGS16-Gao HTS	GALR2 ag	PKD1 kinase inh	HSV augment
1	COc1ccc(-c2oc3ncnc(NCCN4CCOCC4)c3c2-c2ccc(OC)cc2)cc1	100	-1.6	5	i
2	CCCCCC(=O)N1CCCC1	123	.	.	i
3	O=C(CCc1ccccc1)Nc1nnc(-c2ccc3c(c2)OCCO3)o1	99	.	-7	i
4	O=C(Nc1ccc(F)cc1)C1=CC(=O)N2CCN=C2S1	56	.	8	i
5	CCN(c1ccccc1)S(=O)(=O)c1ccc(C(=O)NCC(c2cccs2)N(C)C)cc1 (configuration not stated)	103	.	3	i
6	CN1CCN(c2ccc(S(=O)(=O)N3CCCCC3)cc2NC(=O)c2cccc([N+](=O)[O-])c2)CC1	101	.	13	i
7	CCOC(=O)CC(c1ccc(N)cc1)n1c(C)ccc1C (configuration not stated)	97	.	1	i
8	Cc1ccc(-c2nn[nH]n2)cc1	.	-0.4	-2	i
9	CCN(CC)C(=O)c1ccc2nc3ccccc3nc2c1	102	-1.3	-9	i
10	Cc1c(C(=O)Nc2ccccc2)csc1-c1ccccc1	103	0.4	-12	i

#	HSV augment primary fold	Insulin prom inh	Insulin prom inh cell count
1	1	.	.
2	0.87	.	.
3	1.1	20	86
4	0.98	.	.
5	0.85	53	82
6	0.82	.	.
7	0.91	.	.
8	1.1	-18	62
9	0.88	-43	98
10	0.77	-38	136

Seven compounds from above, sorted by molar mass, highest first:
#	compound	RGS16-Gao HTS	GALR2 ag	PKD1 kinase inh	HSV augment
1	COc1ccc(-c2oc3ncnc(NCCN4CCOCC4)c3c2-c2ccc(OC)cc2)cc1	100	-1.6	5	i
5	CCN(c1ccccc1)S(=O)(=O)c1ccc(C(=O)NCC(c2cccs2)N(C)C)cc1 (configuration not stated)	103	.	3	i
10	Cc1c(C(=O)Nc2ccccc2)csc1-c1ccccc1	103	0.4	-12	i
7	CCOC(=O)CC(c1ccc(N)cc1)n1c(C)ccc1C (configuration not stated)	97	.	1	i
9	CCN(CC)C(=O)c1ccc2nc3ccccc3nc2c1	102	-1.3	-9	i
2	CCCCCC(=O)N1CCCC1	123	.	.	i
8	Cc1ccc(-c2nn[nH]n2)cc1	.	-0.4	-2	i

#	HSV augment primary fold	Insulin prom inh	Insulin prom inh cell count
1	1	.	.
5	0.85	53	82
10	0.77	-38	136
7	0.91	.	.
9	0.88	-43	98
2	0.87	.	.
8	1.1	-18	62

Remaining list, next part:
#	compound	RGS16-Gao HTS	GALR2 ag	PKD1 kinase inh	HSV augment
11	O=S(=O)(c1ccc(Br)s1)n1cccn1	106	-2.2	7	i
12	O=C(Nc1ncc2c(n1)-c1ccccc1OC2)c1cccc([N+](=O)[O-])c1	101	.	-2	i
13	COC(=O)CON1C(=O)c2ccccc2C1=O	99	-1.2	4	i
14	COc1ccc(-n2c(=O)c3c(C)c(C)sc3n(Cc3ccc(F)cc3)c2=O)c(OC)c1	105	.	1	i
15	OC1(c2ccccc2)CCN(Cc2ccccc2)C2CCCCC21 (configuration not stated)	104	-1.5	-15	i
16	COc1cccc(-c2cc(C(=O)Nc3ccc4c(c3)OCCO4)c3ccccc3n2)c1	83	0.6	2	.
17	CN(CC(O)Cn1c2ccccc2c2ccccc21)S(C)(=O)=O (configuration not stated)	95	.	-2	i
18	Cc1occc1-c1nnc(SCC(=O)Nc2ccccc2-c2ccccc2)n1C	103	-1.9	8	i
19	COc1cc(OC)cc(C(=O)N[C@H](C(=O)OCC(=O)Nc2cccc(F)c2)C(C)C)c1	102	-1.0	2	i
20	Cc1cc(C)n2nc3nc(N4CCCCC4)nc(-c4ccco4)c3c2n1	96	.	.	i

#	HSV augment primary fold	Insulin prom inh	Insulin prom inh cell count
11	0.98	.	.
12	0.82	.	.
13	0.7	-60	75
14	0.84	12	72
15	0.88	-34	123
16	.	14	118
17	1	-71	119
18	0.88	-67	88
19	0.92	29	66
20	0.87	.	.

Next part.
#	compound	RGS16-Gao HTS	GALR2 ag	PKD1 kinase inh	HSV augment
21	CCC(C)(C)n1nnnc1C(c1cc2ccc(OC)cc2[nH]c1=O)N1CCCCC1 (configuration not stated)	96	0.5	-4	i
22	O=[N+]([O-])c1cc(C(F)(F)F)ccc1NCCOc1ccccc1	105	-0.8	-8	i
23	CC1(C)NC(=O)N(CC(O)CN2C(=O)NC(C)(C)C2=O)C1=O	103	-1.2	-1	i
24	O=C(O)c1cc(-c2ccc3c(c2)OCCO3)n[nH]1	112	.	-4	i
25	CCN(CC)C(=S)SSC(=S)N(CC)CC	61	-2.6	-7	i
26	COc1ccccc1CNC(=O)CC1Sc2ccccc2NC1=O (configuration not stated)	111	.	-5	i
27	CCOC(=O)C1=C(C)N(C)C(=S)N(C)C1c1ccc(OC)cc1 (configuration not stated)	104	.	-4	i
28	CCC(C)Sc1nc2c(c(=O)[nH]c(=O)n2C)n1CC(O)COc1ccccc1C (configuration not stated)	92	1.8	-4	i
29	O=C1c2oc3ccc(Cl)cc3c(=O)c2C(c2cccc(Br)c2)N1CCO (configuration not stated)	93	0.7	-4	i
30	Cc1ccc(/C=N/NC(=O)NN(C)c2ncc(C(F)(F)F)cc2Cl)cc1	104	.	5	i

#	HSV augment primary fold	Insulin prom inh	Insulin prom inh cell count
21	0.72	-26	130
22	0.91	0	104
23	0.85	-14	86
24	1	.	.
25	0.66	-36	4
26	0.95	-55	137
27	1	.	.
28	0.89	15	119
29	0.82	.	.
30	0.93	.	.

Additional results:
#	compound	RGS16-Gao HTS	GALR2 ag	PKD1 kinase inh	HSV augment
31	COCCn1c(SCc2ccc(C(=O)OC)o2)nnc1-c1c[nH]c2ccccc12	103	-3.3	8	i
32	O=C(Nc1nccs1)c1cc(Cl)ccc1[N+](=O)[O-]	117	-0.7	-9	i
33	NS(=O)(=O)c1ccc(NC(=O)COC(=O)CSc2n[nH]c(-c3ccccc3)n2)cc1	98	0.3	4	i
34	O=C(C1CCCN1S(=O)(=O)c1ccc(Cl)c(Cl)c1)N1CCOCC1 (configuration not stated)	100	-0.7	3	i
35	CC(=O)Nc1ccc(S(=O)(=O)N(CCCN2CCOCC2)Cc2cccs2)cc1	103	.	-3	i
36	Cc1ccc(/C(N)=N/OC(=O)COc2ccc(Cl)c(C)c2)cc1	88	0.5	2	.
37	COc1ccc(C2C3C(=O)N(Cc4ccccc4)C(=O)C3ON2c2ccccc2)c(OC)c1OC (configuration not stated)	61	-1.4	-6	.
38	Cc1ccc(-c2noc(CCC(=O)NCCN3CCc4ccccc4C3)n2)cc1	100	-1.1	-9	i
39	CCN1C(=O)C(CC(=O)Nc2ccc(F)cc2)N(Cc2cccs2)C1=S (configuration not stated)	102	.	2	i
40	CN(C)CCCN(C(=O)CCc1ccccc1)c1nc2c(F)cccc2s1	82	-0.9	4	i

#	HSV augment primary fold	Insulin prom inh	Insulin prom inh cell count
31	0.68	.	.
32	1.2	.	.
33	0.74	.	.
34	1	21	74
35	1.1	-21	81
36	.	-92	110
37	.	.	.
38	0.88	-100	41
39	0.8	.	.
40	0.66	-76	58

Further entries.
#	compound	RGS16-Gao HTS	GALR2 ag	PKD1 kinase inh	HSV augment
41	CC(C)CN1CCN(Cc2cc(F)ccc2-n2cccn2)CC1CCO (configuration not stated)	87	.	4	i
42	Cn1c(=O)c2cc(S(=O)(=O)NCCC(=O)NCC3CCCO3)ccc2n(C)c1=O (configuration not stated)	103	-1.6	-2	i
43	C=CCc1cccc2cc(C(=O)NCCOC)c(=O)oc12	95	.	-2	i
44	CN(C)CCCN1C(=O)C(=O)/C(=C(/O)c2ccc3c(c2)OCO3)C1c1ccco1 (configuration not stated)	.	-1.8	4	.
45	COc1ccc(CNC(=O)CCOc2ccc(C(C)(C)C)cc2)cc1	96	-0.4	-3	i
46	O=C(CSc1nc2ccccc2s1)Nc1ccc(N2CCOCC2)c(Cl)c1	99	0.2	3	i
47	CCCC1(C)SC(NC(C)=O)=NN1C(C)=O (configuration not stated)	100	-0.3	-2	i
48	O=S(=O)(c1ccc(Br)s1)N1CCNCC1	95	.	.	i
49	O=C(OCC(=O)N1CCc2ccccc2C1)c1cc(=O)[nH]c2ccccc12	99	.	.	i
50	COc1ccc2oc(=O)c(C(=O)NCc3cccnc3)cc2c1	108	0.3	-4	i

#	HSV augment primary fold	Insulin prom inh	Insulin prom inh cell count
41	0.81	.	.
42	0.93	18	82
43	0.85	.	.
44	.	46	75
45	0.92	24	36
46	1	.	.
47	0.8	32	139
48	1	.	.
49	0.99	.	.
50	0.99	-5	126

Additional entries.
#	compound	RGS16-Gao HTS	GALR2 ag	PKD1 kinase inh	HSV augment
51	CC(C)Cn1c(N)c(C(=O)COC(=O)c2ccc(O)cc2)c(=O)n(C)c1=O	89	.	-5	i
52	COC(=O)C1=C(C(=O)OC)[C@@H]2N(C)c3ccccc3[C@@]23C[C@@H](C(=O)OC)N(C(=O)C2CCC2)C3=N1	96	.	.	i
53	CCN1CCN(C(c2cccs2)C(C)NC(=O)c2c(F)cccc2F)CC1 (configuration not stated)	105	-2.5	9	i
54	Cc1cc(C)nc(N/N=C/c2cccc3ccccc23)n1	106	-0.7	2	i
55	O=C(CSc1nnc(-c2ccccc2)n1Cc1ccccc1)NC1CC1	106	-4.0	-2	i
56	COc1ccc2c(c1)CC/C(=C\Nc1ccc3c(c1)OCO3)C2=O	102	-1.6	-4	i
57	Cc1cnc(CN2CCc3c([nH]c4ccccc34)C2CC(C)C)[nH]1 (configuration not stated)	107	.	-9	i
58	C/C(=N\NC(=O)Cn1nc(C)cc1C)c1ccc([N+](=O)[O-])cc1	104	.	.	i
59	COc1ccccc1CNC(=O)C(C)c1ccc([N+](=O)[O-])cc1 (configuration not stated)	94	.	4	i
60	COc1cc(C(=O)NC(=S)Nc2ccc(N3CCCC3)cc2)cc(OC)c1OC	63	-1.9	-6	i

#	HSV augment primary fold	Insulin prom inh	Insulin prom inh cell count
51	0.91	-11	141
52	1.2	.	.
53	1	50	70
54	0.95	.	.
55	0.83	-45	154
56	1.1	18	120
57	0.85	-43	99
58	0.9	.	.
59	1.2	35	93
60	1.1	.	.

Later entries.
#	compound	RGS16-Gao HTS	GALR2 ag	PKD1 kinase inh	HSV augment
61	Cc1ccc(C(=O)N[C@H](C(=O)OCc2cc(=O)n3c(n2)sc2ccccc23)C(C)C)cc1	92	-0.3	-7	i
62	CC(C)CC(=O)/C(=C\c1ccc(Cl)cc1Cl)n1cncn1	-1	0.7	-8	i
63	N#Cc1c2n(c3c(=O)n(CC(=O)c4ccc(Br)cc4)cnc13)CCCC2	102	-1.4	-3	i
64	CCn1c(SCc2cccnc2)nc2c1c(=O)n(C)c(=O)n2C	100	-1.2	10	i
65	CC(=O)NCc1cc(-c2nn(C)c(=O)c3ccccc23)ccc1C	102	-0.1	-5	i
66	Cc1cc(S(=O)(=O)Nc2nc(CN3CCOCC3)nc3sc4c(c23)CCCC4)ccc1F	97	-0.2	5	.
67	COc1ccc(NC(=O)CCS(=O)(=O)c2ccc3c(c2)CCCN3C(C)=O)cc1Cl	105	-2.1	2	i
68	Cc1ccc(CN2CC(C(=O)Nc3ccc4c(C)cc(=O)oc4c3)CC2=O)cc1 (configuration not stated)	94	-0.1	-5	i
69	CCN(CC)C(=O)CSc1nnc(-n2nc(C)cc2C)c2ccccc12	78	-0.3	1	i
70	COc1ccc(CCNC(=O)C2CCCN(C(=O)N(C)C)C2)c(OC)c1 (configuration not stated)	48	-0.5	-8	i

#	HSV augment primary fold	Insulin prom inh	Insulin prom inh cell count
61	0.87	.	.
62	0.53	57	99
63	0.87	-58	102
64	1.1	.	.
65	1	-13	134
66	.	-23	139
67	0.99	.	.
68	0.89	8	103
69	0.97	-24	79
70	1	.	.

Fetched by compound from above:
#	compound	RGS16-Gao HTS	GALR2 ag	PKD1 kinase inh	HSV augment
21	CCC(C)(C)n1nnnc1C(c1cc2ccc(OC)cc2[nH]c1=O)N1CCCCC1 (configuration not stated)	96	0.5	-4	i
63	N#Cc1c2n(c3c(=O)n(CC(=O)c4ccc(Br)cc4)cnc13)CCCC2	102	-1.4	-3	i

#	HSV augment primary fold	Insulin prom inh	Insulin prom inh cell count
21	0.72	-26	130
63	0.87	-58	102

Following part.
#	compound	RGS16-Gao HTS	GALR2 ag	PKD1 kinase inh	HSV augment
71	O=C(NCCC1=CCCCC1)C1CC(=O)N(C2CCCCC2)C1 (configuration not stated)	96	-0.9	-9	i
72	CCOC(=O)Cn1nc(C)c(NC(=O)c2ccc([N+](=O)[O-])c(C)c2)c1C	100	.	-2	i
73	COC(=O)c1cc2c(s1)CS(=O)C2 (configuration not stated)	104	-4.0	-10	i
74	Oc1ccc(-c2n[nH]c(=S)n2Cc2ccco2)cc1	103	-3.1	-2	i
75	Cc1ccccc1Nc1nc(N)nc(COC(=O)c2ccc(S(=O)(=O)N(C)C)cc2)n1	124	-0.3	4	i

#	HSV augment primary fold	Insulin prom inh	Insulin prom inh cell count
71	0.98	16	80
72	1.1	7	56
73	1	.	.
74	0.81	26	92
75	0.89	-20	53
